D2 agonist – activates the human D2 dopamine receptor; P14416; DiscoveRx PathHunter D2 beta-arrestin, luminescence, 90 min; 100% = 57 uM dopamine signal; activation, % (concentration not given with the values); 0.084% of 360,000 active; AID 624465; in the data active = activation above about 40%; inconclusive = about 15% to 40%; inactive = below about 15%; further: compound concentration not given in the record; the text of the record calls up to 30% inactive
Target sequence (P14416 whole entry, looked up): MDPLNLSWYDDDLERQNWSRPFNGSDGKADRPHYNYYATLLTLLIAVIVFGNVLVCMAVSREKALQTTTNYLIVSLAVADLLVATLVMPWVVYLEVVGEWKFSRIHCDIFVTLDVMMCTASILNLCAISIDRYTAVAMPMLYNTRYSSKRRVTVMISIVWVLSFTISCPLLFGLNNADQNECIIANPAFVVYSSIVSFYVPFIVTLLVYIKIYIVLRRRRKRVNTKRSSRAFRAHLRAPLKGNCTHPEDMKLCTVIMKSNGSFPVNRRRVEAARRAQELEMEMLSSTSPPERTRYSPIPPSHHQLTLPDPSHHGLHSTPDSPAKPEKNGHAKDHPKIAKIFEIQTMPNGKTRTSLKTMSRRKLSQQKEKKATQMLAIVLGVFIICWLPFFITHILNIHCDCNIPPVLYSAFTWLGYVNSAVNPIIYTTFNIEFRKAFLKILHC
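DiscoveRx PathHunter D2 beta-arrestin cells (2,100/well) attached overnight, then compound-stimulated 90 min at 37 C in HBSS/10 mM HEPES/0.1% Tween-20 buffer; beta-galactosidase complementation read by luminescence after 1 h at ambient temperature. Dopamine 57 uM final (EC100) as control.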
gsp agonist – activates gsp, the McCune-Albright syndrome mutation; 0.13% of 340,000 active; gsp mutant cells, cAMP HTRF, 30 min; control for the full effect not named in the record; Potency, µM (doses to about 76.9 µM), for the others: at the top dose activation (cAMP increase), most hits filed as activators; active = well fitted activation curve with a large enough effect; inconclusive = small, poorly fitted or top-dose-only effect, or another doubt; inactive = no such curve, though single readings can be large or run the other way; cell line not stated here;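 further: phosphodiesterase inhibitor Ro 20-1724 added with compounds to block cAMP breakdown; potency means the concentration at half of the fitted maximal effect; nearly all actives have a fitted effect of over 60% in size; about a fifth of the inactives were tested at one dose only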
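Cells in DMEM/10% FBS with G418 were pretreated with compounds in DMSO plus […] (300 uM stock) for 30 min at 37C. cAMP was measured by HTRF (cAMP-d2 plus anti-cAMP antibody-K) after 30 min at room temperature.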
PINK1 expr mod – PINK1 expression modulation; PINK1 immunofluorescence, high-content cytometry, 24 h; Potency, µM (doses to about 76.6 µM), without a hit: at the highest dose activation (PINK1 increase), usual class: activators; 0.2% of 410,000 active; active = well fitted activation curve with a large enough effect; inconclusive = small, poorly fitted or top-dose-only effect; inactive = flat fitted curve, though single readings scatter; cell line not stated here;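 further: potency means the concentration at half of the fitted maximal effect; % of control where 0% means no effect; nearly all actives have a fitted effect of over 65% in size; a mitochondrial uncoupler was the plate control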
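Readout is PINK1 immunofluorescence, quantified alongside mitochondrial, cell and nuclear markers by laser-scanning microplate cytometry. Cells from a stable line were exposed to compound titrations (5 concentrations) for 24 hours, with CCCP controls.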
ClpP mod – qHTS Assay for Activators of ClpP; purified B. subtilis ClpP, FRET peptide cleavage, 20 min; 1.9% of 340,000 active; Potency, µM (series often up to 57.5 µM), for inactives: top-dose activity change, negative = active; active = well fitted falling curve with a large enough effect; inconclusive = small, poorly fitted or top-dose-only effect; inactive = no such curve, though single readings can be large or run the other way; further: potency means the concentration at half of the fitted maximal effect; the source files actives as falling curves though it sought activators and does not explain the sign; nearly all actives have a fitted effect of over 65% in size; many hits overshoot -100%
Target sequence (P80244 whole entry, looked up): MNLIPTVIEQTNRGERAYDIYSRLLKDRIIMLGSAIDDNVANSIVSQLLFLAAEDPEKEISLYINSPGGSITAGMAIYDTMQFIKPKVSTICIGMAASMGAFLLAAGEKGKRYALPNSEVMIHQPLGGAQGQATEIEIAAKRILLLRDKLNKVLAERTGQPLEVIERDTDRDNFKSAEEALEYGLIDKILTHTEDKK
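FRET quenching reversal measured ClpP activation: 10 microg/mL B. subtilis ClpP at pH 8 with the FRET-FV decapeptide, read at 430 nm after 320 nm excitation. The 20-min minus 0-min signal was scaled between DMSO/no-enzyme wells and ADEP (5.8 microM final).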
Menin-MLL FL inh – inhibitors of human menin-MLL interaction, wild-type MLL peptide. 290,000 tested, under 10 active. AID 1766. FP activity change, % at 61.4 µM. Fluorescence polarization, fluorescein-MLL peptide displacement from menin; inconclusive = falling polarisation curve, or a change in total fluorescence; inactive = total fluorescence flat and polarisation flat or rising; no compound was filed as active; the % refers to the polarisation; negative = inhibition;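 further: % of control where 0% means no effect; inhibitors lower the polarisation; unlabelled MLL peptide was the positive control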
gsp antag – antagonists of gsp mutant (McCune-Albright syndrome); 0.4% of 340,000 active; Potency, µM (titrated, usually from 76.9 µM), for the others: at the top dose activity change, negative = inhibition, hits mostly inhibitors; gsp-mutant cells, cAMP HTRF, 30 min; control for the full effect not named in the record; AID 624288; active = falling curve of any shape with a large fitted effect; inconclusive = falling curve, mostly with a smaller effect; inactive = flat or rising curve; cell line not stated here;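 further: intracellular cAMP measured with PDE inhibitor Ro 20-1724 present during compound exposure; potency means the concentration at half of the fitted maximal effect; on the % scale 0 is the no-effect control and ±100 the full control effect; nearly all actives have a fitted effect of over 65% in size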
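Cells in G418 medium, seeded 16-24 h, 37C; buffer exchange to DPBS + 1 mM CaCl2, 0.5 mM MgCl2, 0.05% BSA; cpds in DMSO + […] (300 uM stock), 30 min 37C; HTRF cAMP detection.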
Sfp inh – blocks B. subtilis Sfp PPTase activity | Q9F4F7 | Biochemical Sfp PPTase activity, qHTS | Potency, µM, without a hit: max response, negative = inhibition, usual class: inhibitors | 3.5% of 310,000 active | AID 1490; active means well fitted inhibition curve with a large enough effect; inconclusive means small, poorly fitted or top-dose-only effect, or another doubt; inactive means no such curve, though single readings can be large or run the other way;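 further: the enzyme is Sfp with the accession as filed and its product quenches rhodamine fluorescence; potency means the concentration at half of the fitted maximal effect; 0% = enzyme reaction without inhibitor and -100% = no enzyme wells; top concentration of the series not given in the record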
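Buffer: 50 mM Hepes-Na pH 7.6, 10 mM MgCl2, 0.01% Nonidet P-40, 0.01% BSA. Enzyme 15 nM, pre-exposed to compound 15 min; substrates then added and fluorescence change tracked over 30 min.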
* marks the source's active call; other numbers are inactive results; ? = inconclusive; nt = not tested or not shown; & = joins results of further samples; [ ] = remark or other dose.

SMILES | D2 agonist | gsp agonist | PINK1 expr mod | ClpP mod | Menin-MLL FL inh | gsp antag | Sfp inh
O=C(COc1ccc2ccccc2c1)NNC(=O)c1ccc([N+](=O)[O-])cc1 | 3.0 | 0%[15.4 µM] | -0.5% | nt | 0.7 | 9% | -1%
COC(=O)c1cccc(NC(=O)c2cccc(-n3cnnn3)c2)c1 | 0.2 | 11% | 3.7% | -5.8% | nt | nt | nt
COCC(=O)Nc1cc(C(=O)Nc2ccccc2C)ccc1Cl | -1.1 | 1% | nt | -1.5% | 1.1 | 2% | 12%
CCC1=C(OC(=O)N(CC)CC)N2C(=O)OC(=NCC3CC3)[C@]2(C)[C@H]2C1=CC[C@H]1C(=O)N(C)C(=O)[C@H]12 | -0.2 | nt | 1.1% | 2.4% | -4.9&0.3 | 5% | ?
CSc1nc(N(C)NC(=O)c2cccc(C)c2)c2ccccc2n1 | -3.9 | 27% | 5.3% | -0.9% | 4.7 | 5% | 3%
CCOC(=O)C1CCN(C(=O)COC(=O)CN(C)S(=O)(=O)c2ccc(NC(C)=O)cc2)CC1 | 1.4 | 26%[15.4 µM] | -1.0% | 1.0% | nt | 0% | nt
CCN1C(=O)N(CC)c2cccc3cccc1c23 | 0.4 | -18% | -0.9% | -12% | -1.6 | 0% | 13%
O=C(NNc1nc(-c2ccccc2)c2cc(Br)ccc2n1)c1ccc(S(=O)(=O)N2CCOCC2)cc1 | -6.2 | 22%[15.4 µM] | 0.1% | -2.1% | 8.3 | -3% | 15%
Cc1ncc(CO)c(/C=N/NC(=O)c2cc(Br)ccc2O)c1O | -7.1 | -29% | -0.1% | 0.9% | ? | 2% | -10%
CCOc1ccc2nc(SCC(=O)Nc3cc(C)on3)c(C)cc2c1 | -5.2 | 3%[15.4 µM] | 2.6% | nt | -7.2 | 7% | -5%
CCN(c1ccccc1)S(=O)(=O)c1ccc2[nH]cc(C(=O)NCCOC)c(=O)c2c1 | 3.1 | -10% | 0.7% | ? | -0.5 | -7% | 2%
O=C(Nc1cccc(Cl)c1)c1ccc(-n2cncn2)c([N+](=O)[O-])c1 | 4.5 | 21% | nt | -0.5% | 0.4 | -11% | 2%
Cc1n[nH]c(=S)n1-c1cccc(Cl)c1 | 3.6 | 16% | 2.4% | 0.4% | 2.9 | 17% | ?
O=C(Cn1nc(-c2ccccc2)c2ccccc2c1=O)NCCO | -2.7 | -29% | -0.4% | 4.3% | 0.7 | 4% | 7%
CCOP(=O)(OCC)C(NC(=O)Nc1c(C)cc(C)cc1C)c1ccccc1 (configuration not stated) | -0.5 | -23% | 1.5% | nt | -4.5 | 11% | -4%
COc1ccc(C(=O)c2c[nH]cc2-c2ccccc2)cc1 | -1.0 | -7% | 10% | 1.6% | 1.7 | 0% | -1%
O=C(OCC(=O)N1CCOCC1)c1ccc[nH]c1=O | -3.3 | -9% | -1.4% | -11% | 1.3 | 18% | 2%
CCOC(=O)CSc1nc2sc(C)c(C)c2c(=O)[nH]1 | -3.7 | 17% | 2.0% | 1.4% | 0.5 | 6% | -6%
Cc1ccc(/C=C/C(=O)c2ccccc(=O)c2O)cc1C | -7.5 | -1%[15.4 µM] | -2.5% | -0.9% | 27 | -28% | ?
Cc1ccc(S(=O)(=O)Cc2nc3ccccc3c(=O)[nH]2)cc1 | -2.1 | 2% | -2.2% | -10% | 4.1 | 3% | 5%
CN1/C(=C/C(=O)c2ccc(Cl)cc2)Sc2cc3c(cc21)OCO3 | 1.0 | -76%[inhibitor] | ? | 1.0% | 21 | 32µM* | ?
CCOC(=O)c1c(C)nc2sc3c(=O)n(-c4ccc(OC)cc4)cnc3c2c1-c1ccc(OC)cc1 | -4.6 | 12% | 0.9% | -5.3% | 3.5 | 9% | -10%
CCCN1C(=O)c2ccc(C(=O)NCc3ccco3)cc2C1=O | -0.5 | 2% | -4.1%[38.3 µM] | 0.0% | 3.3 | 2% | 45µM*
COc1ccc(NC(=O)c2ccc(NC(=O)CN3CCN(c4ccccc4O)CC3)cc2)cc1 | 1.9 | 11% | 5.1% | 1.4% | nt | nt | nt
Cc1nc2ccc(Br)cc2c2c1CC(CO)O2 (configuration not stated) | 0.2 | ? | -2.1% | 3.7% | -4.2 | 8% | 6%
COc1ccc(N2CC(C(=O)Nc3cc(C)ccn3)CC2=O)cc1 (configuration not stated) | -3.4 | ? | 0.2% | -1.5% | 5.2 | 2% | 2%
Cc1cc(C)n(C2CC(=O)N(c3ccc(Cl)c(Cl)c3)C2=O)n1 (configuration not stated) | -3.0 | -13% | 3.2% | nt | 5.5 | 2% | 13%
CCOC(=O)c1cc(=O)n2nc(-c3ccccc3F)nc2s1 | 2.5 | 17% | -4.1% | -9.8% | 1.0 | 15% | 14µM*
CCOC(=O)c1nnn(-c2nc(N3CCCC3)nc(N3CCCC3)n2)c1-c1ccccc1 | -2.8 | -8% | -1.0% | 1.2% | 3.8 | 0% | 3%
CCCc1cc(=O)n2[nH]c(NCc3ccccc3F)nc2n1 | -1.5 | -5% | -1.2% | -6.2% | -2.9 | 1% | 16%
Cc1cccc(OCCCC(=O)NNC(=O)c2ccc(F)cc2)c1 | -1.1 | ? | 2.5% | 1.9% | nt | 5% | nt
O=C1CC(c2ccc(F)cc2)CC(O)=C1C=NCCN1CCNCC1 (configuration not stated) | -1.1 | ? | -1.0% | -2.0% | nt | -6% | nt
C/C(=N\OCC(=O)OC(C)C(=O)Nc1ccc(C(N)=O)cc1)c1ccc2c(c1)OCO2 (configuration not stated) | 1.3 | 16% | 1.3% | -5.3% | 0.4 | -18% | -1%
NC(=O)c1ccccc1OCc1nnc(-c2ccccc2Br)o1 | -1.8 | 14% | 0.3% | nt | -0.3 | -7% | 5%
CCN(CC(=O)Nc1ccc(OC)cc1)C(=O)CCS(=O)(=O)c1ccc(C)cc1 | -5.4 | ? | -3.4% | 0.9% | -0.3 | 12% | 4%
Nc1ncnc(Sc2ccccc2)c1[N+](=O)[O-] | 0.8 | 14% | 4.2% | -4.8% | 2.9 | -2% | 6%
COc1cc(C(=O)OCC(=O)NC2CCS(=O)(=O)C2)c([N+](=O)[O-])cc1OC (configuration not stated) | -4.5 | -1%[15.4 µM] | 0.3% | nt | -0.7 | nt | 0%
CCN(CC)c1ccc2c(C)c(CN3CCOCC3)c(=O)oc2c1 | 1.6 | ? | -4.0% | 28µM* | ? | 5% | 8%
CC/C(=N\NC(=O)C1CCCC1)c1ccc(Br)cc1 | 1.5 | ? | 3.2% | 0.1% | -0.9 | 6% | 13%
CC1CCCC(C)N1C(=O)Cn1c(SCC(=O)NCc2ccc3c(c2)OCO3)nc2ccccc21 (configuration not stated) | -3.5 | -1% | 4.4%[38.3 µM] | 1.8% | -0.7 | 9% | -4%
N#Cc1ccc(CN2CCN(C(=O)CNS(=O)(=O)c3ccc4c(c3)OCCCO4)CC2)cc1 | 2.4 | -54%[inhibitor] | -0.3% | -2.0% | nt | -5% | nt
Cc1csc2nc(CSc3nc4ccccc4o3)c(Br)n12 | -1.3 | 6% | 0.8% | 0.4% | -1.2 | -2% | -12%
Cn1cncc1C#Cc1ccc2cc(C(C)(C)O)oc(=O)c2c1 | 0.9 | 21% | -2.2% | 3.9% | nt | 2% | nt
Cc1c(NC(=O)c2cccs2)cccc1NC(=O)c1cccs1 | 0.0 | 1% | 18% | -3.5% | nt | 1% | 3%
CCOC(=O)c1ccc(NC(=O)CN2C(=O)NC3(CCCCCCC3)C2=O)cc1 | 2.3 | -29% | 2.5% | -0.5% | nt | 0% | nt
CCCCC(=O)N1CCCC(C(=O)OCC)C1 (configuration not stated) | -2.7 | -40%[inhibitor] | -1.1% | -0.4% | 3.5 | 16% | 7%
COCCN(C(=O)COC(=O)CCc1c[nH]c2ccccc12)c1c(N)n(Cc2ccccc2)c(=O)[nH]c1=O | -2.8 | 7% | 1.1% | -2.7% | nt | 11% | nt
COc1ccccc1CNC(=O)c1cnc2sccn2c1=O | 4.4 | 4% | 0.4% | -7.1% | -0.7 | 6% | -7%
COc1cccc(N2CCN(c3nc(C)cc(=O)[nH]3)CC2)c1 | -2.1 | -7% | 1.8% | -2.2% | 0.6 | 2% | 30%
N#Cc1nc(-c2ccccc2)oc1N1CCC(C(N)=O)CC1 | -2.8 | ? | 0.6% | nt | -1.8 | -1% | 5%
CCC1Nc2ncnc(N3CCOCC3)c2N(Cc2ccc(Br)cc2)C1=O (configuration not stated) | -3.5&-7.3 | nt | -0.8%&2.1% | 0.7%&-0.5% | nt | -3% | nt
CN1CCN(CC(=O)Nc2nc3ccccc3s2)CC1 | -1.1 | -6% | -0.1% | 0.3% | -0.4 | 6% | -8%
Cc1ccc(-c2noc(-c3ccno3)n2)cc1 | -4.3 | 1%[15.4 µM] | -1.2% | nt | 0.2 | 3% | 10%
O=C(O)c1cccc(NC(=O)c2cccc(S(=O)(=O)N3CCc4ccccc4C3)c2)c1 | 0.8 | -57%[inhibitor] | 0.3% | 0.7% | -4.0 | -21% | -3%
CN(C(=O)c1cccc(NC(=O)Cc2ccc(NC(=O)C3CCCN(C(=O)c4ccccc4)C3)cc2)c1)C1CCCC1 (configuration not stated) | 2.4 | nt | -0.8% | -0.6% | nt | -2% | nt
COc1ccc(N2CCN(CCCNC(=O)CCC(=O)N3CCOc4ccc(Cl)cc43)CC2)cc1 | -6.1 | -6% | -0.5% | -4.4% | nt | 6% | 5%
CCN1CCN(C(=O)c2ccc3c(=O)n(CCC4=CCCCC4)c(=O)[nH]c3c2)CC1 | -1.3 | -14% | -0.3% | -21% | 1.5 | 4% | 10%
COCCn1c(C)cc(C2=NNC(=NC3CC3)SC2)c1C | -5.5 | 0%[15.4 µM] | 0.4% | 0.8% | -4.0 | 4% | 50µM*
Cc1ccc(C)c(NC(=O)CSc2nnc([C@@H]3CCCN3C(=O)OC(C)(C)C)o2)c1 | -9.9 | -30% | -0.5% | -0.7% | -1.4 | -7% | 12%
CC(=O)OC(C(=O)NCc1ccco1)c1ccncc1 (configuration not stated) | -1.8 | 8% | -0.5% | -7.5% | 3.4 | 18% | 19%
CC(C)NC(=O)CCCc1cn(C)c2ccccc12 | -3.8 | -29% | -2.6%[38.3 µM] | 32µM* | 1.3 | 6% | 19%
CCn1cc(C(=O)NCC2CCCO2)c(=O)c2cc(F)c(N3CCN(C)CC3)cc21 (configuration not stated) | 1.0 | 4% | 0.6% | ? | -0.9 | 11% | 21%

Source: PubChem (National Center for Advancing Translational Sciences (NCATS))

Compounds as they come. Share with any hit: about 5.1%.
